Rango dissoc inh: qHTS Assay for Inhibitors of RanGTP induced Rango (Ran-regulated importin-beta cargo) - Importin beta complex dissociation; 340,000 compounds, 0.071% hits; AID 540253, 2011; Snurportin-1 (Homo sapiens) + GTP-binding nuclear protein Ran (Homo sapiens) + Importin …; Potency, µM (highest dose often 46.1 µM), for inactives: top-dose activity change, negative = inhibition; Biochemical FRET Rango-importin beta, RanGTP-induced dissociation; active means falling FRET ratio curve, often poorly fitted, with flat reads before Ran was added; inconclusive means other falling curves, or compound fluorescence or quenching; inactive means flat or rising ratio curve;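 further: potency means the concentration at half of the fitted maximal effect; % of control where 0% means no effect; nearly all actives have a fitted effect of over 45% in size; -100% = wells without RanGTP and RCC1; the record marks most hits as doubtful in a second field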
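FRET read at 45 min, room temperature: inhibitors block the CFP/YFP signal rise when RanGTP (0.6 uM Ran, 2 mM GTP, 0.2 uM RCC1) frees Rango (0.1 uM) from importin beta (0.25 uM). Pre-read after 5 min compound exposure flags interference.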
GLA inh pH 4.5: qHTS Assay for Inhibitors of Human alpha-Galactosidase at pH 4.5 | Alpha-galactosidase A (Homo sapiens), P06280 | purified enzyme, 4-MU-alpha-Gal fluorescence, pH 4.5 | activity change, negative = inhibition, % at 105 µM | 230,000 tested, under 10 active | AID 1467, 2008; inconclusive = small, poorly fitted or top-dose-only inhibition, or a rising curve; inactive = flat fitted curve, though single readings scatter; no compound was filed as active;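 further: 0% = full activity with enzyme and -100% = basal without enzyme; dose as in the result columns while the protocol names 77 µM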
Target sequence (P06280 whole entry, looked up): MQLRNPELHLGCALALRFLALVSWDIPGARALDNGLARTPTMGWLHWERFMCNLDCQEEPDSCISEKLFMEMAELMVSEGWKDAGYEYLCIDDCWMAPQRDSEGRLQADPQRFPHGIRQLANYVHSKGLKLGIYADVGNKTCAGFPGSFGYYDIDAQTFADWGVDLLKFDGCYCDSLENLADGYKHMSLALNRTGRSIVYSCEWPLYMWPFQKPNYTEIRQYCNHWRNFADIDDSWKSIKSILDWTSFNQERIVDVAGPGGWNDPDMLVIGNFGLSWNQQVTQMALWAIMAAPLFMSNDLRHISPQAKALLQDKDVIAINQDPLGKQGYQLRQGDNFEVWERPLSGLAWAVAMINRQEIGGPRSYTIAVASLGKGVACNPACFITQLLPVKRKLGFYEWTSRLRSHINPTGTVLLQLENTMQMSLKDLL
Rango complex inh: qHTS Assay for Inhibitors of Rango (Ran-regulated importin-beta cargo) - Importin beta complex formation. Importin subunit beta-1 (Homo sapiens), Q14974. Rango CFP/YFP FRET sensor + importin beta, 45 min. Potency, µM (series often up to 92.2 µM), for the others: at the top dose inhibition of complex formation. 340,000 compounds, 0.031% hits. AID 540263, 2011; active = rising FRET ratio curve, often small or poorly fitted; inconclusive = mostly compound fluorescence or quenching in the first reads; inactive = flat curves in all reads;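 further: potency means the concentration at half of the fitted maximal effect; 0% = DMSO wells and 100% = buffer wells lacking importin beta; nearly all actives have a fitted effect of over 15% in size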
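FRET biosensor (snurportin 1 IBB flanked by EYFP and cerulean), 50 nM, with compound 5 min, then 0.125 microM importin beta in PBS, 1 mM DTT, 0.02% Tween-20, 0.1% BSA. CFP/YFP ratio read after 45 min at room temperature; pre-read flags interference.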
miR-21 FLuc: qHTS Assay for Modulators of miRNAs and/orActivators of miR-21 | HeLa miR-21 FLuc reporter, luciferase, 48 h | Potency, µM (titrated, usually from 38.3 µM), for inactives: top-dose reporter change, positive = more light | 340,000 tested, under 10 active | AID 2288, 2010; active = well fitted rising curve with a large enough effect; inconclusive = small, poorly fitted or top-dose-only effect; inactive = no such curve, though single readings can be large or run the other way;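 further: % of control where 0% means no effect; miR-21 action dims this reporter so a rising signal means less miR-21 action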
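HeLa cells stably expressing CMV-driven firefly luciferase with a downstream miR-21 binding sequence, endogenously expressing miR-21, were treated with titrations (up to about 40uM final) for 48 hours at 37 degree Celsius. Luciferase luminescence was read after lysis.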
* marks the source's active call; other numbers are inactive results; ? = inconclusive; / = no result given. The list is partial (hit frequency here may not be typical).

SMILES | Rango dissoc inh | GLA inh pH 4.5 | Rango complex inh | miR-21 FLuc
CS(=O)(=O)c1cnc2c(-c3ccc(F)cc3)cnn2c1N | -4% | 3 | 6.5% | -72%
COc1ccccc1NS(=O)(=O)c1cccc(C(=O)N(C)Cc2cccs2)c1 | 0% | / | -0.7% | 5%
CCCCSc1nc(C)c(CC(=O)OC)c(=O)[nH]1 | 8% | 4 | -0.2% | -2%
Clc1ccc(-c2cn3nc4c(nc3n2)CCCC4)cc1 | ? | 4 | ? | -69%
CS(=O)(=O)N(CCc1ccccc1)CC(=O)N1CCN(c2ccc(F)cc2)CC1 | 1% | 0 | -2.9% | 11%
CCOC(=O)C1CCN(C(=O)c2cccc(N3C(=O)NC4CC3(C)Oc3ccc(C)cc34)c2)CC1 (stereo not given) | -16% | / | ? | 14%
Cc1nc2ccc(Br)cc2c(=O)n1Cc1cccs1 | -1% | / | -1.5% | /
CCCc1cc(=O)[nH]c2nnc(SCC(=O)Nc3nccs3)n12 | 9% | / | -1.7% | /
Cc1c(Br)ccc(NC(=O)c2ccccc2[N+](=O)[O-])c1C | -10% | 4 | -0.6% | 0%
O=C(O)C(SC(C(=O)O)c1ccccc1)c1ccccc1 (stereo not given) | 20% | / | 1.1% | /
O=C(Cn1cc2c(n1)CCCCC2)Nc1ccccc1Cl | 1% | -3 | 0.3% | -34%
COc1ccc(C(=O)C2CCCN(Cc3ccc4c(c3)OCCO4)C2)cc1F (stereo not given) | 11% | -9 | -2.7% | 0%
CCP(=O)(c1ccccc1)C(C)(C)O (stereo not given) | -19% | 1 | -5.0% | -1%
O=C(Nc1ccc(Br)cc1)c1cccc(N2C(=O)C3C4C=CC(C4)C3C2=O)c1 (stereo not given) | 0% | / | 0.0% | 15%
CN1CCN(c2ccccc2NC(=O)c2ccc(-c3ccc(Cl)c(Cl)c3)o2)CC1 | 11% | / | 0.4% | -2%
CC(C)c1ccc2oc(=O)cc(CN3CCN(Cc4ccccc4)CC3)c2c1 | -12% | / | 2.0% | -1%
O=C(Nc1cccc2ncccc12)c1cc(Br)ccc1Cl | 9% | / | -1.2% | -3%
Cc1ccc(-c2ccc(/C=C3\SC(N4CCOCC4)=NC3=O)o2)cc1 | ? | 0 | ? | 0%
O=C(NCc1cccc(F)c1)c1cccc2c1C(=O)c1ccc(N3CCOCC3)cc1S2(=O)=O | -11% | / | ? | /
CCOc1ccc(S(=O)(=O)N/N=C2/CC(c3ccccc3)Oc3ccccc32)cc1 (stereo not given) | -8% | -11 | -2.0% | -7%
COc1ccccc1-n1c(CCn2nc(C)c(Br)c2C)n[nH]c1=S | -4% | 2 | 0.2% | -8%
Cc1ccc(S(=O)(=O)N2CCN(C(=O)c3cc4c(s3)CCCC4)CC2)c(C)c1 | -10% | / | -0.3% | /
CC(=O)Oc1ccc(-c2csc(Nc3ccc(Cl)cn3)n2)cc1 | 4% | / | 3.5% | -34%
CC(=O)Nc1cc2c(cc1Cl)-c1ccccc1C2 | -4% | / | -3.1% | /
CC(=O)N(C)C1=C(N2CCOCC2)C(=O)c2ccccc2C1=O | -5% | 2 | 3.6% | 29%

Going on with the list.
SMILES | Rango dissoc inh | GLA inh pH 4.5 | Rango complex inh | miR-21 FLuc
O=C(CN1c2ccccc2Sc2ccccc21)N/N=C/c1ccc(Cl)cc1 | -4% | -2 | 4.2% | 2%
CC(C)CC1NC(=O)N(Cc2nc3ccccc3s2)C1=O (stereo not given) | 1% | -1 | 4.9% | -10%
COc1ccc(/C(C)=N/OCC(=O)N=Nc2c(O)[nH]c3ccc(Br)cc23)cc1 | -8% | 0 | -3.0% | -11%
COc1cc2[nH]c(-c3cccc(F)c3)cc(=O)c2cc1OC | 6% | 3 | 1.8% | 13%
COc1ccc(OC)c(S(=O)(=O)N2CCC(C(=O)Nc3cccc(C)c3C)CC2)c1 | -4% | 3 | -5.6% | 4%
S=C(NCC1CCCO1)Nc1ccc(Cl)cc1Cl (stereo not given) | -7% | -11 | 1.2% | -37%
CCNC(=O)CC1C(=O)N(c2cccc(OC)c2)C(=O)N1CCOC (stereo not given) | 4% | 0 | ? | -6%
CCN(CC)S(=O)(=O)c1cccc(N=Nc2c(O)c3ccccc3oc2=O)c1 | ? | -11 | -3.4% | -9%
O=C(CCc1ccc(S(=O)(=O)NCCc2ccccc2)cc1)Nc1ccc2c(c1)OCO2 | -17% | 1 | 7.6% | -1%
N#Cc1nc(-c2ccccc2)oc1N1CCN(C(=O)c2ccco2)CC1 | -1% | / | -2.4% | -10%
COc1ccc(CNC(=O)C(C)Sc2nc3ccccc3c(=O)n2CCCN2CCOCC2)cc1 (stereo not given) | 15% | 1 | -0.1% | 11%
O=C(Cc1ccccc1[N+](=O)[O-])OCN1C(=O)c2ccccc2C1=O | 58% | / | 3.7% | -1%
Cc1cc(C)cc(SCc2noc(C(=O)NC(C)C)c2C(=O)NC(C)C)c1 | -3% | / | -3.1% | 0%
Cc1csc(SCC(=O)Nc2ccc(Cl)cn2)n1 | -17% | -2 | -3.3% | -18%
O=c1c2c(ncn2C2CCCC2)n(Cc2ccccc2)c(=O)n1CCOc1ccc(Br)cc1 | -15% | 1 | -5.3% | 5%
Cc1cc(C)cc(N2C(=O)CN(Cc3sccc3C)C2=S)c1 | 1% | -15 | -3.4% | -1%
COc1ccc(C(=O)OC/C(O)=C(\C#N)c2nc3ccccc3[nH]2)cc1S(=O)(=O)N1CCOCC1 | -14% | -7 | -7.4% | -1%
CCC(C)/C(C)=N/NC(=O)CNS(=O)(=O)c1ccc([N+](=O)[O-])cc1 (stereo not given) | 0% | -1 | -0.5% | 0%
CCCC1C2C(=O)N(c3cccc(C)c3)C(=O)C2ON1c1ccccc1 (stereo not given) | 43% | 6 | -0.6% | 2%
COC(=O)C1=C(CSc2nccn2C)NC(=O)NC1c1cc(C)ccc1C (stereo not given) | -7% | 0 | 0.1% | 1%
CSc1nccn1CC(=O)Nc1ccc(F)cc1 | 14% | -1 | -1.6% | -14%
CC(O)C(=O)N/N=C/c1ccccc1C(=O)O (stereo not given) | -6% | 5 | -4.4% | -12%
O=C(Nc1ccc(Cl)cc1)ON=C1CCCC1 | -22% | -5 | -1.0% | -30%
CC(C)=CCc1c(-c2ccc(O)cc2O)oc2c3c(cc(O)c2c1=O)OC(C)(C)C=C3 | 2% | / | -0.6% | /
COc1cc(OC)cc(C(=O)N2CCN(Cc3ccccc3Br)CC2)c1 | 7% | -4 | 4.1% | -2%

(continued)
SMILES | Rango dissoc inh | GLA inh pH 4.5 | Rango complex inh | miR-21 FLuc
COc1ccc(/C=C(/NC(=O)c2ccccc2Cl)C(=O)NCCCC(=O)O)cc1 | 2% | 4 | 9.6% | 0%
CCOC(=O)c1cc(-c2ccccc2)sc1NC(=O)C(C)Sc1nnc(N)s1 (stereo not given) | 2% | -30 | -2.6% | 10%
CC(C)NS(=O)(=O)c1ccc(NC(=O)C(C)OC(=O)CCC2CCCCC2)cc1 (stereo not given) | -7% | / | 0.1% | /
Cc1ccc(Nc2nc(N)nc(CSC(=S)N3CCN(c4ccccc4)CC3)n2)cc1 | -5% | 0 | ? | -21%
C[C@H](CO)N1C[C@H](C)[C@@H](CN(C)C(=O)NC2CCCCC2)Oc2ccc(NC(=O)Cn3cnnn3)cc2C1=O | 8% | / | -0.7% | /
COc1ccc2cc(S(=O)(=O)N3CCCC3)ccc2c1 | 11% | / | -0.3% | 0%
NS(=O)(=O)c1ccc(CCNC(=O)c2ccc(NS(=O)(=O)c3ccc4[nH]c(=O)[nH]c4c3)cc2)cc1 | -3% | / | 4.8% | /
CCCCC(=O)NCCc1cc2c(OC)ccc(OC)c2[nH]c1=O | ? | -22 | 1.5% | -10%
Cc1ccc(C(=O)NCCOc2ccc(Cl)cc2)cc1 | 9% | / | 5.7% | -45%
COCCNc1nc(-c2cc3ccccc3o2)cs1 | 5% | -11 | -0.8% | -48%
COc1cc(NC(=S)Nc2ccccn2)cc(OC)c1 | 4% | -4 | -2.8% | -30%
NS(=O)(=O)c1cc2c(cc1Cl)NC(CC1CCCC1)NS2(=O)=O (stereo not given) | -6% | 7 | 58µM* | 0%
O=C(Cn1nc(Cl)nc1Cl)c1ccccc1 | 0% | / | 2.6% | -1%
CCOc1ccc(S(=O)(=O)N2CCN(c3ccc(C)cc3C)CC2)cc1 | -3% | 3 | -0.5% | 1%
Fc1ccccc1Cn1c2[n+](c3ccc(C(F)(F)F)cc31)CCCCC2 | 1% | 3 | 1.0% | -5%
COc1ccc(NC(=O)c2cc(-c3ccc(C)cc3O)n[nH]2)c(OC)c1 | 13% | / | -1.6% | -2%
CN(C)c1ccc(N=Nc2ccccc2C(=O)OCC(=O)N2CCCCCC2)cc1 | -7% | -13 | -0.3% | -35%
Cn1cc(S(=O)(=O)NC(c2ccccc2)c2ccccc2)c(=O)n(C)c1=O | 0% | -5 | -0.3% | 0%
CC(NS(=O)(=O)c1cc2c3c(c1)CCC(=O)N3CCC2)c1ccccc1 (stereo not given) | -4% | / | -1.3% | /
CC(C)=CCc1c(O)ccc(C(=O)Cc2ccccc2)c1O | 6% | 1 | -3.5% | -14%
Cc1ccc2nsnc2c1NC(=O)c1cccnc1Cl | 2% | -3 | 4.8% | -7%
CC1(C)OC(=O)C(=CNCC(=O)NCC(=O)O)C(=O)O1 | 1% | 6 | 0.1% | -2%
COc1ccc(NC(=O)Cn2nnc(-c3ccccc3NC(=O)c3cccs3)n2)cc1 | 4% | -6 | -4.2% | 0%
CNCc1ccccc1OCC(=O)Nc1ccccc1 | -9% | -25 | 1.0% | -39%
CCOc1ccc(/C=C/C2=CC(C)(C)NC(=S)N2)cc1 | -3% | -3 | 2.1% | 13%

(more compounds)
SMILES | Rango dissoc inh | GLA inh pH 4.5 | Rango complex inh | miR-21 FLuc
CC(C)=C(NC(=O)c1ccccc1)C(=O)N/N=C/c1ccc(O)cc1 | 2% | -2 | 3.3% | -35%
O=C(COC(=O)c1ccco1)c1ccccc1 | -10% | / | 0.7% | -5%
CC(=O)c1ccc2c(c1)N(CCCN1CCC(CCO)CC1)c1ccccc1S2 | 23% | -2 | -5.5% | /
CCOC(=O)C(=O)/C(C#N)=C/Nc1ccc(Cl)cc1 | -9% | 8 | 5.1% | 4%
CCOC(=O)Cc1csc(NC(=S)NC(=O)C(C)(C)C)n1 | -20% | 0 | -1.9% | -7%
COc1ccc(C(=O)Nc2ccc3c(c2)OCCO3)cc1[N+](=O)[O-] | -11% | -6 | -1.2% | -34%
CCN(CC)C(=O)c1cnn(-c2ccccc2)c1NC(=O)c1ccccc1F | 11% | -4 | 2.5% | -3%
Cn1c(SCC(=O)NCc2ccc(F)cc2)ncc(C(=O)Nc2ccccc2)c1=O | 1% | / | 0.4% | /
O=C(CCN1C(=O)c2ccccc2C1=O)Nc1ccccc1C(F)(F)F | -1% | / | -3.5% | -1%
CCOc1ccc(NC(=O)N2CCN(C(=O)c3ccco3)CC2)cc1 | 2% | / | -3.9% | 0%
O=C(NNC(=O)C1CCN(c2ncccn2)CC1)c1ccc(Cl)cc1 | -6% | -5 | -2.8% | -1%
COC(=O)C1(Cc2ccccc2)NC(c2ccccc2C)C2C(=O)N(c3ccc4c(c3)OCO4)C(=O)C21 (stereo not given) | -7% | -2 | 1.8% | -6%

Ordered by value in Rango complex inh (largest number first): 3 from the list above.
SMILES | Rango dissoc inh | GLA inh pH 4.5 | Rango complex inh | miR-21 FLuc
CCOC(=O)C(=O)/C(C#N)=C/Nc1ccc(Cl)cc1 | -9% | 8 | 5.1% | 4%
CC(C)=C(NC(=O)c1ccccc1)C(=O)N/N=C/c1ccc(O)cc1 | 2% | -2 | 3.3% | -35%
O=C(NNC(=O)C1CCN(c2ncccn2)CC1)c1ccc(Cl)cc1 | -6% | -5 | -2.8% | -1%

Source: PubChem BioAssay (National Center for Advancing Translational Sciences (NCATS))
